Screening results: PubChem, ICCB-Longwood Screening Facility, Harvard Medical School
HCMV UL50-53 inh = inhibitors of HCMV UL50-UL53 nuclear egress complex interaction; HTRF UL50-UL53 interaction, normalized percent inhibition; hit rate 0.15% among 190,000; AID 1918969; inhibition, % (test concentration not listed);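 active = both replicates at 50% or more, plus weaker picks with an unusually low signal ratio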;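 also: stock transfer was 100 nL into about 20 µL; 0% = negative control wells and 100% = wells with untagged competitor protein; inactives centre near -12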
GIV-Gai inh = GIV-Galpha-i interaction inhibition; P08753; Galpha-i3/FITC-GIV peptide fluorescence polarization, 90 min; hits give low values; scaled: aluminum fluoride 0%, vehicle 100%; percent of control (FP), % (test concentration not listed); hit rate 0.42% among 210,000; AID 1224905;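 active = replicate mean at 85% of control or lower, very high polarization wells dropped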;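 also: wells of about 15 µL received 100 nL stock; the first replicate is given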
Target sequence (P08753 whole entry, looked up): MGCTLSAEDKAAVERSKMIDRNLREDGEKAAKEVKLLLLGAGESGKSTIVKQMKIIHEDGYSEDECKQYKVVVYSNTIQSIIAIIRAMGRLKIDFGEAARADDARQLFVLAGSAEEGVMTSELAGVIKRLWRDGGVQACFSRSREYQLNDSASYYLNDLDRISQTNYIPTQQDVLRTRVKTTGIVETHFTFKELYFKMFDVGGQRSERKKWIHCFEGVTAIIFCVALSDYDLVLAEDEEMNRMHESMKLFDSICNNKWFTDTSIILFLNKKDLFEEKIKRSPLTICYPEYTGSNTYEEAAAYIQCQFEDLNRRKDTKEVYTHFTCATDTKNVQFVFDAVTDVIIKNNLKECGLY
Sa growth 42C = blocks Staphylococcus aureus growth; S. aureus RN4220 growth, OD600, 20 h, 42 °C; hits give low values; relative growth, % (test concentration not listed); hit rate 0.53% among 170,000;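 active = growth at 42 °C up to 50% and 20 or more points under that at 30 °C, or under 10% at both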;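 also: 300 nL library stock went into each well; scaled to the means of positive and negative controls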
Sa growth 42C second temp = also measured in Sa growth 42C; calls as there; relative growth, %; measured here: growth at 30 °C;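 optical density after 20 h as mean of two plates; 100% = untreated growth and lower means inhibition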
The depositor's hits bear a star; nt = not tested or not shown; & = joins results of further samples.

Abbreviations – A = HCMV UL50-53 inh; B = GIV-Gai inh; C = Sa growth 42C; D = Sa growth 42C second temp
(1) CCCCN1C(=O)c2[nH]nc(-c3ccccc3O)c2C1c1ccc(OCc2ccccc2)c(OC)c1 (centres undefined)
  A = -7.4; B = 101.2; C = 103.9; D = 87.2

(2) Cc1noc(-c2ccccc2)c1NC(=O)N1CCOCC1
  A = -18.0; B = 100.5; C = 110.8; D = 88.1

(3) CN1CCC=C(Cc2n[nH]c(=O)c3ccccc23)C1
  A = nt; B = 102.7; C = 100.3; D = 93.0

(4) Cc1ccc2ccc3cc(C(=O)Nc4ccc(F)c(Cl)c4)nc3c2[nH]1
  A = -4.8; B = 102.9; C = nt; D = nt

(5) Cc1cccc(C(=O)Nc2ccc(C(=O)OCc3cc(=O)n4nc(C5CC5)sc4n3)cc2)c1
  A = nt; B = 103.2; C = 88.2; D = 84.2

(6) COc1cc(/C=C2\SC(=Nc3ccccc3)N(c3ccccc3)C2=O)cc(OC)c1O
  A = -11.4; B = nt; C = 88.4; D = 83.8

(7) CCOC(=O)c1[nH]c2ccccc2c1NC(=O)c1ccc(Br)cc1
  A = 7.0; B = 102.1; C = 104.8; D = 93.8

(8) COc1ccc(-c2nc3sc(CCNC(=O)c4cc(Cl)ccc4OC)c(C)n3n2)cc1
  A = nt; B = 101.2; C = 132.8; D = 78.8

(9) COCCOC(=O)C1=C(C)NC2=C(C(=O)CC(c3ccc(Cl)cc3)C2)C1c1ccc([N+](=O)[O-])cc1 (centres undefined)
  A = -29.6; B = 106.0; C = nt; D = nt

(10) COc1ccc(NC(=O)c2ncn3c2C(=O)N(C2CC2)C(C)(C(=O)NC2CCCC2)C3)c(OC)c1 (centres undefined)
  A = -14.2; B = 107.8; C = nt; D = nt

(11) Cc1cc2c(cc1S(=O)(=O)CCC(=O)N(C)Cc1ccccc1)OCC(=O)N2
  A = -14.9; B = 106.6&105.6; C = 107.6; D = 91.6

(12) CC(=O)Nc1cc(C(=O)NCCN2C(C)CCCC2C)ccc1Sc1ccc(C)cc1 (centres undefined)
  A = nt; B = 116.5; C = 81.3; D = 81.1

(13) CC(CCC(=O)NC1CCCCC1)C(=O)O (centres undefined)
  A = -17.5; B = 101.9; C = 113.2; D = 93.4

(14) Cc1ccc(/C(C#N)=C/c2c(F)cccc2Cl)cc1
  A = nt; B = 98.7; C = 98.2; D = 83.8

(15) O=C1OC(CC(=O)N2CCN(c3ccc(F)cc3)CC2)c2ccccc21 (centres undefined)
  A = 10.5; B = nt; C = 100.3; D = 94.9

(16) CCOC(=O)c1c(C)n(-c2ccccc2)c2c1cc(OC(=O)c1cccc(OC)c1)c1ccccc12
  A = -11.4; B = 106.4; C = nt; D = nt

(17) O=C(O)CC(CC(=O)N1CCOCC1)c1ccccc1 (centres undefined)
  A = -7.7; B = 99.6; C = 95.2; D = 92.7

(18) COc1ccc(CCn2cnn3c(=O)c4ccccc4nc3c2=O)cc1OC
  A = -37.6; B = 102.0; C = 102.1; D = 94.6

(19) O=C(COC(=O)CSc1ccc(Cl)cc1)Nc1ccc2[nH]c(=O)[nH]c2c1
  A = 18.7; B = nt; C = 137.7; D = 97.6

(20) O=C1CCC(C(=O)OCc2nc3ccccc3s2)N1 (centres undefined)
  A = -17.8; B = nt; C = 108.8; D = 89.7

(21) CCC(CC)(C(=O)O)C(=O)Nc1ccc(SC(F)F)cc1
  A = -18.8; B = nt; C = 88.6; D = 81.3

(22) Cc1cc2nc3sc(C(=O)Nc4ccc(S(N)(=O)=O)cc4)cc(=O)n3c2cc1C
  A = -41.2; B = 104.0; C = nt; D = nt

(23) CC1=C(C(=O)OC2CCCC2)C(c2ccccc2Cl)CC(=O)N1 (centres undefined)
  A = -4.0; B = 105.1; C = 113.8; D = 95.8

(24) CCc1ccccc1N(C)C(=O)C1CCCN(c2ncnc3c2nc2n3CCCCC2)C1 (centres undefined)
  A = nt; B = 102.6; C = 139.9; D = 84.6

(25) O=C1CCC(C(=O)OCN2C(=O)c3ccccc3C2=O)=NN1
  A = -21.7; B = nt; C = 110.0; D = 91.1

An excerpt from above in order of molar mass, largest number first.
Abbreviations – A = HCMV UL50-53 inh; B = GIV-Gai inh; C = Sa growth 42C; D = Sa growth 42C second temp
(9) COCCOC(=O)C1=C(C)NC2=C(C(=O)CC(c3ccc(Cl)cc3)C2)C1c1ccc([N+](=O)[O-])cc1 (centres undefined)
  A = -29.6; B = 106.0; C = nt; D = nt

(1) CCCCN1C(=O)c2[nH]nc(-c3ccccc3O)c2C1c1ccc(OCc2ccccc2)c(OC)c1 (centres undefined)
  A = -7.4; B = 101.2; C = 103.9; D = 87.2

(16) CCOC(=O)c1c(C)n(-c2ccccc2)c2c1cc(OC(=O)c1cccc(OC)c1)c1ccccc12
  A = -11.4; B = 106.4; C = nt; D = nt

(5) Cc1cccc(C(=O)Nc2ccc(C(=O)OCc3cc(=O)n4nc(C5CC5)sc4n3)cc2)c1
  A = nt; B = 103.2; C = 88.2; D = 84.2

(8) COc1ccc(-c2nc3sc(CCNC(=O)c4cc(Cl)ccc4OC)c(C)n3n2)cc1
  A = nt; B = 101.2; C = 132.8; D = 78.8

(6) COc1cc(/C=C2\SC(=Nc3ccccc3)N(c3ccccc3)C2=O)cc(OC)c1O
  A = -11.4; B = nt; C = 88.4; D = 83.8

(18) COc1ccc(CCn2cnn3c(=O)c4ccccc4nc3c2=O)cc1OC
  A = -37.6; B = 102.0; C = 102.1; D = 94.6

(15) O=C1OC(CC(=O)N2CCN(c3ccc(F)cc3)CC2)c2ccccc21 (centres undefined)
  A = 10.5; B = nt; C = 100.3; D = 94.9

(23) CC1=C(C(=O)OC2CCCC2)C(c2ccccc2Cl)CC(=O)N1 (centres undefined)
  A = -4.0; B = 105.1; C = 113.8; D = 95.8

(21) CCC(CC)(C(=O)O)C(=O)Nc1ccc(SC(F)F)cc1
  A = -18.8; B = nt; C = 88.6; D = 81.3

(25) O=C1CCC(C(=O)OCN2C(=O)c3ccccc3C2=O)=NN1
  A = -21.7; B = nt; C = 110.0; D = 91.1

(2) Cc1noc(-c2ccccc2)c1NC(=O)N1CCOCC1
  A = -18.0; B = 100.5; C = 110.8; D = 88.1

(17) O=C(O)CC(CC(=O)N1CCOCC1)c1ccccc1 (centres undefined)
  A = -7.7; B = 99.6; C = 95.2; D = 92.7

(3) CN1CCC=C(Cc2n[nH]c(=O)c3ccccc23)C1
  A = nt; B = 102.7; C = 100.3; D = 93.0

Quoted from above: entries 1–2
Abbreviations – A = HCMV UL50-53 inh; B = GIV-Gai inh; C = Sa growth 42C; D = Sa growth 42C second temp
(1) CCCCN1C(=O)c2[nH]nc(-c3ccccc3O)c2C1c1ccc(OCc2ccccc2)c(OC)c1 (centres undefined)
  A = -7.4; B = 101.2; C = 103.9; D = 87.2

(2) Cc1noc(-c2ccccc2)c1NC(=O)N1CCOCC1
  A = -18.0; B = 100.5; C = 110.8; D = 88.1

Other entries.
Abbreviations – A = HCMV UL50-53 inh; B = GIV-Gai inh; C = Sa growth 42C; D = Sa growth 42C second temp
(26) CCN(CC)CC(=O)Nc1ccc(C)cc1Br
  A = -8.6; B = 98.3; C = 101.0; D = 95.4

(27) CC1(C(=O)NCC(=O)c2cccs2)Cc2ccccc2C(=O)O1 (centres undefined)
  A = -26.0; B = 107.5; C = 103.2; D = 100.5

(28) CCN(CC)C(=O)C1c2ccccc2C(=O)N2CCc3ccccc3C12 (centres undefined)
  A = -1.0; B = 104.6; C = 95.1; D = 91.6

(29) Cn1c(=O)cc(N2CCCCC2)[nH]c1=O
  A = -15.6; B = 107.2; C = 107.4; D = 90.3

(30) COc1ccc(C2C=C(c3ccccc3)NC(=O)C2C#N)cc1 (centres undefined)
  A = -30.6; B = nt; C = 109.4; D = 107.4

(31) Cc1ccc(C2C(C#N)=C(N)N(c3cccnc3)C3=C2C(=O)CCC3)s1 (centres undefined)
  A = -18.0; B = 117.6; C = 99.1; D = 55.4

(32) CCOc1ccc(OCC)c(NS(=O)(=O)c2c(C)[nH]c(=O)[nH]c2=O)c1
  A = nt; B = 103.8; C = 106.8; D = 96.0

(33) CN(C)c1nc(C(C)(C)C)cc2c1C(=O)NC2=O
  A = -40.3; B = 97.9; C = 91.3; D = 85.9

(34) Cc1ccnc(NS(=O)(=O)c2ccccc2)c1
  A = -17.8; B = 97.9; C = 92.8; D = 79.9

(35) O=C(C[C@H]1NC(=O)[C@@H]2CCCN2C1=O)OCc1ccccc1
  A = 11.8; B = 104.6; C = 84.7; D = 92.7

(36) O=C(CC1CCCC1)NCCc1cn2ccccc2n1
  A = -20.1; B = 104.4; C = 106.8; D = 87.9

(37) COc1nc2nonc2nc1OC
  A = -64.6; B = 105.4; C = 104.0; D = 92.3

(38) Cc1ccc(CSCCC(=O)NCc2ccc(F)cc2Cl)cc1
  A = nt; B = 109.0; C = 92.7; D = 107.5

(39) CCCSc1ncc(Cl)c(C(=O)Nc2scc(-c3ccc(C)cc3)c2C(=O)OCC)n1
  A = -3.5; B = 108.5; C = 102.6; D = 91.8

(40) Fc1cc(Br)ccc1Nc1c2c(nc3ncnn13)CCC2
  A = -14.7; B = 101.0; C = nt; D = nt

(41) Fc1cccc2c1NC(c1ccccc1)C1CC=CC21 (centres undefined)
  A = -11.2; B = 99.0; C = 82.2; D = 85.4

(42) O=C(NCC(F)(F)F)Nc1ccccc1
  A = 5.7; B = 101.5; C = 79.2; D = 101.7

(43) COCCN1C(=O)c2ccccc2C(C(=O)NCCN(C)C)C1c1ccc(F)cc1 (centres undefined)
  A = nt; B = 101.9; C = 86.1; D = 85.7

(44) O=C(Nc1ccc(Cl)cc1)N1N=C2c3ccccc3CCC2C1c1cccs1 (centres undefined)
  A = -7.1; B = 104.0; C = 84.5; D = 80.8

(45) CCOC(=O)N1CCC2(CC1)OC(=O)C(C)=C2C(=O)NCc1cccc(F)c1
  A = nt; B = 103.2; C = 115.5; D = 84.7

(46) CC(=O)Nc1ccc(NS(=O)(=O)c2c(C)nc3sccn3c2=O)cc1
  A = nt; B = 105.6; C = 115.4; D = 84.8

(47) Cc1ccc(CCNC(=O)C2COc3ccccc3C2)cc1 (centres undefined)
  A = nt; B = 99.0; C = 107.3; D = 92.4

(48) Cc1ccc2[nH]c3c(c2c1)CCC1C3=NNC1c1ccco1 (centres undefined)
  A = nt; B = -65.7*; C = 95.4; D = 68.2

(49) O=C(Nc1ccc(-c2nnc(-c3ccco3)o2)cc1)C(c1ccccc1)c1ccccc1
  A = -26.0; B = 110.1; C = 113.1; D = 83.9

(50) CCN(CC)c1cc(Cl)nc(N)n1
  A = -9.3; B = 101.6; C = nt; D = nt

(51) CNC(=O)c1ccc(NC(=O)C2=CSCCO2)cc1
  A = 3.7; B = 104.4; C = 96.7; D = 104.5

(52) Cc1c(Cc2ccccc2)c(=O)oc2cc(OC3CCCCC3=O)ccc12 (centres undefined)
  A = nt; B = 101.3; C = 100.3; D = 93.0
